Screens as filed in PubChem BioAssay.
ugtP null kill = growth inhibition of S. aureus ugtP deletion strain; 330,000 compounds, 0.54% hits; AID 1259309; S. aureus RN4220 ugtP deletion, OD600 growth, 16 h; some inactives read as strong as hits; growth inhibition, % (no concentration beside the values);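 active means z-score under -3 and OD600 up to 0.15 on both plates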;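 further: plate controls were untreated wells for no effect and antibiotic for full effect; wells of about 80 µL received 100 nL stock; the first replicate is given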
Autofluor counter = counter-screen for toxin protease inhibitors: compound fluorescence; compound autofluorescence counterscreen, microsphere flow cytometry; active compounds read high; fluorescence intensity (test concentration not listed); 360,000 compounds, 3.1% hits;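 active means at least 3 SD above the mean of all compounds, about 16000 in these data; inconclusive means too few beads counted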;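 further: 100 nL of 1 mM stock went into each well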
PrP 5UTR inh = inhibition of PrP 5' UTR reporter expression. cell-based PrP 5' UTR mRNA reporter, plate reader. inhibition, % (test concentration not listed). 340,000 compounds, 0.35% hits. AID 488862;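 active means every replicate at 50% or more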;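 further: 0 = median of the neutral control wells; tested in H4 reporter cells; numbers are from one replicate; inactives centre near -14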
Sa RN4220 lethal = S. aureus RN4220 growth inhibition. OD600, 16 h. inhibition, % (test concentration not listed). 330,000 compounds, 0.33% hits. AID 1259311;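 active means z-score of -3 or lower and OD600 up to 0.18 on both plates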;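 further: plate controls were untreated cells for no effect and reference antibiotic for full effect; stock transfer was 100 nL into about 80 µL; one replicate is shown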
Mtb hypoxia inh = inhibitors of hypoxia-regulated fluorescent reporter in Mycobacterium tuberculosis; M. tuberculosis hypoxia-regulated fluorescent reporter, fluorescence; fluorescence inhibition, % (no concentration beside the values); 300,000 compounds, 0.1% hits; AID 1159583;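 active means 35 to 45% if threefold the growth effect, above 45% if 1.5-fold the growth effect; inactive means the rest, general growth blockers included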;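 further: wells of about 50 µL received 100 nL stock; 0% = vehicle wells and 100% = reference inhibitor wells; whole bacteria with a GFP reporter of the hypoxia response; strong numbers were not always called active; many hits fall short of the cut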
BJeLR viability = BJeLR cell viability loss; BJeLR (HRASV12) viability, CellTiter-Glo ATP luminescence, 48 h; reference of the scale not given here; inhibition, % (concentration not given with the values); 300,000 compounds, 0.17% hits; AID 1554;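 active means replicate mean above 50%; inconclusive means above 50% but judged a plate artefact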;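 further: 50 nL library stock added to about 25 µL; numbers are from one replicate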
Mtb hypoxia inh growth = second read-out of Mtb hypoxia inh, no call of its own (marks repeat the call); growth inhibition, %; measured here: M. tuberculosis growth (absorbance);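 0% = vehicle and 100% = reference antibiotic; read after six days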
The depositor's hits bear a star; ? = inconclusive; / = not tested or not shown; & = joins results of further samples.

Letter code: A = ugtP null kill; B = Autofluor counter; C = PrP 5UTR inh; D = Sa RN4220 lethal; E = Mtb hypoxia inh; F = Mtb hypoxia inh growth; G = BJeLR viability
Compound: O=C(NCCc1c[nH]c2ccccc12)c1cnccn1
  A: 0; B: 3945; C: -32; D: 1.1; E: 6; F: -4; G: 4
Compound: COc1ccc2oc(C(=O)Nc3ccc(S(=O)(=O)N(C)C4CCN(C)CC4)cc3)c(C)c2c1
  A: -7; B: 6511; C: -21; D: 1.1; E: -1; F: 15; G: 2
Compound: O=[N+]([O-])c1cccc(-c2c(-c3ccccc3)ncc3cc(F)ccc23)c1
  A: 6; B: 4207; C: -25; D: -7.8; E: 23; F: 8; G: /
Compound: COCCn1c(C)cc(C(=O)CSc2nc(C)c(C)c(C)n2)c1C
  A: -6; B: 4157; C: -8; D: 1.2; E: -6; F: 4; G: 2
Compound: CCc1ccc(/C=N/NC(=O)c2cc(-c3ccncc3)nc3ccccc23)s1
  A: /; B: 2203; C: -29; D: /; E: /; F: /; G: 14
Compound: Cc1cccc(Nc2nc3c(S(=O)(=O)c4ccccc4)nnn3c3ccccc23)c1
  A: -1; B: 2468; C: -2; D: 1.3; E: 6; F: -2; G: -16
Compound: Cc1cc(C(=O)NN=Cc2c(CO)cnc(C)c2O)c2ccccc2n1
  A: 2; B: /; C: /; D: 0.0; E: 15; F: -4; G: /
Compound: O=C(CN1CCN(c2ccccn2)CC1)Nc1ccc(OCc2ccccc2)cc1
  A: 3; B: 2759; C: -13; D: -3.4; E: /; F: /; G: 0
Compound: CC(=O)c1c(N2CCN(C(=O)C3CCCO3)CC2)nc(=S)n(-c2ccccc2)c1C (configuration not stated)
  A: 3; B: 13056; C: -9; D: -0.9; E: 7; F: 1; G: -9
Compound: CCn1cc(/C=N\NC(=O)c2ccccc2Cl)cn1
  A: /; B: 2531; C: -17; D: /; E: /; F: /; G: -7
Compound: COc1ccccc1Oc1coc2cc(OCC(N)=O)ccc2c1=O
  A: 5; B: 3638; C: -14; D: 1.5; E: 1; F: 3; G: -7
Compound: CCCCOC(=O)Nc1nnc(CC(=O)NCc2ccccc2)s1
  A: 8; B: 3981; C: -16; D: -0.7; E: 6; F: -4; G: 0
Compound: O=C(CN(C(=O)c1ccc2c(c1)OCCO2)c1ccccc1)NCC1CCCO1 (configuration not stated)
  A: 1; B: 4658; C: -9; D: -0.4; E: /; F: /; G: -8
Compound: COc1ccc(C(=O)N=C2SC3CS(=O)(=O)CC3N2Cc2ccccc2)cc1OC (configuration not stated)
  A: 4; B: 6658; C: 1; D: 0.0; E: 1; F: -4; G: -1
Compound: Cn1c(=O)c2c(nc(N/N=C/c3c(O)n(C4CCCCC4)c(=S)[nH]c3=O)n2C)n(C)c1=O
  A: 3; B: 4228; C: -24; D: 5.2; E: 14; F: 12; G: 1
Compound: COc1ccccc1C(=O)NCCC(=O)N1CCN(c2ccccc2O)CC1
  A: 4; B: ?; C: -11; D: 2.3; E: -5; F: -5; G: 13
Compound: CCCC(=O)OCC(=O)c1[nH]c(C)c(C(C)=O)c1C
  A: 1; B: 4066; C: -14; D: -2.2; E: -1; F: 9; G: 9
Compound: CC1CCCN(S(=O)(=O)c2cccc(C(=O)OCC(=O)N(C)Cc3c(F)cccc3Cl)c2)C1 (configuration not stated)
  A: -5; B: 3906; C: -16; D: -2.9; E: 9; F: -1; G: /
Compound: COc1ccc(NCC(=O)N/N=C2\CCc3ccccc32)cc1
  A: /; B: 4035; C: -6; D: /; E: /; F: /; G: -3
Compound: COc1ccc(C=NNC(=O)Nc2nonc2N)cc1
  A: 1; B: /; C: /; D: -4.7; E: 8; F: 5; G: /
Compound: CCN1CCN(C(=S)Nc2ccc([N+](=O)[O-])cc2)CC1
  A: -8; B: 4562; C: 1; D: -7.4; E: -11; F: 0; G: 7
Compound: COc1ccc(NC(=O)c2ccc(-c3nn(C)c(=O)c4ccccc34)cc2)cc1C(N)=O
  A: 4; B: 4176; C: -13; D: 1.0; E: -12; F: -11; G: -13
Compound: CCC1(C)SC(N)=NN1C(C)=O (configuration not stated)
  A: 5; B: 3276; C: 1; D: 5.1; E: 18; F: -5; G: 3
Compound: CC1=NNC(=O)C1CC(=O)NN=Cc1ccncc1 (configuration not stated)
  A: 8; B: /; C: /; D: 2.2; E: 9; F: 4; G: /
Compound: Nc1nnnn1/N=C/c1ccccn1
  A: /; B: 21208*; C: -4; D: /; E: /; F: /; G: 7
Compound: COc1ccc(OCC(=O)NC(=S)Nc2ccccc2F)cc1
  A: 4; B: 2086; C: -26; D: -0.2; E: 10; F: 8; G: 10
Compound: Cn1nnc2cc(C(=O)N3CCC(c4ccccc4)C3)ccc21 (configuration not stated)
  A: -3; B: 5202; C: -19; D: -4.2; E: 7; F: 15; G: 2
Compound: Cc1ccc(S(=O)(=O)N2CCCC2)cc1C(=O)O
  A: /; B: 8760; C: 4; D: /; E: /; F: /; G: 11
Compound: O=C(CC1C[C@H](C(=O)N2CCOCC2)[C@@]2(CCC3CCCC3)c3[nH]c4ccccc4c3CCN2C1=O)NCCC1=CCCCC1 (some centres not stated)
  A: 5; B: 3657; C: -12; D: 2.7; E: 0; F: -1; G: /
Compound: c1ccc(C(c2ccccn2)c2ccccn2)cc1
  A: 2; B: 8165; C: -9; D: 2.8; E: -2; F: 1; G: -16
Compound: COc1ccccc1OCC(=O)Nc1ccc2c(c1)C(=O)N(CC1CCCO1)C2=O (configuration not stated)
  A: 7; B: 3205; C: -23; D: -0.5; E: -7; F: -2; G: -5
Compound: COc1cccc(CNC(=O)C(CC(C)C)NC(=O)c2ccccc2C)c1 (configuration not stated)
  A: 11; B: 3900; C: -36; D: -2.3; E: 12; F: -1; G: -7
Compound: Cn1c(-c2sc3ccccc3c2Cl)n[nH]c1=S
  A: -12; B: ?; C: -21; D: 2.6; E: 4; F: 2; G: 4
Compound: COc1cccc(OC)c1C(=O)Nc1ccc2c(c1)OCCO2
  A: -1; B: 25227*; C: -27; D: 3.2; E: 4; F: 14; G: -7
Compound: CC1(c2ccccc2)NC(=O)N(N)C1=O (configuration not stated)
  A: 2; B: 3591; C: -16; D: 3.0; E: -1; F: 1; G: -3
Compound: O=C(CSc1nnc(-c2cccs2)o1)Nc1cccc(S(=O)(=O)N2CCCCC2)c1
  A: 6; B: 10288; C: -10; D: 4.6; E: 1; F: -5; G: 0
Compound: Cc1ccc(-n2nc3c(=O)n(CCCC(=O)NCC(C)c4ccccc4)nc(C)c3c2C)cc1 (configuration not stated)
  A: 2; B: 5019; C: -18; D: 1.2; E: -1; F: -2; G: /
Compound: COc1cccc(C(=O)OC2C(Cc3ccccc3)NS(=O)(=O)C3CC4C=C[C@]23O4)c1 (some centres not stated)
  A: 2&1; B: /; C: /; D: 3.7&8.1; E: -4&0; F: -1&8; G: /
Compound: CN(Cc1ccccc1)C(=O)c1ccc(NC(=O)Cc2ccc([N+](=O)[O-])cc2)cc1
  A: 3; B: 3272; C: -12; D: -0.1; E: 4; F: 4; G: /
Compound: O=c1[nH]c(Cc2ccccc2Cl)nc2ccccc12
  A: -1; B: 3456; C: -10; D: 1.7; E: 6; F: 5; G: -1
Compound: O=C(CNC(=O)c1ccc(Br)o1)NC12CC3CC(CC(C3)C1)C2
  A: 4; B: 4236; C: 3; D: 2.2; E: 1; F: -12; G: -4
Compound: CC(C)CC(=O)NC(c1ccccc1Cl)c1c(O)ccc2ccccc12 (configuration not stated)
  A: 3; B: 2067; C: 7; D: -8.1; E: -9; F: 8; G: 1
Compound: COC(=O)C1=C(N)Oc2cc(C)n(CCCn3ccnc3)c(=O)c2C1c1ccc(Cl)cc1 (configuration not stated)
  A: 7; B: 3347; C: -5; D: -18; E: 10; F: 2; G: -5
Compound: COC(=O)c1cccc(N(C(=O)c2ccco2)C(C(=O)NC2CCCC2)c2ccc(N3CCOCC3)cc2)c1 (configuration not stated)
  A: 3; B: 6274; C: -6; D: 3.2; E: 21; F: 10; G: -5
Compound: COc1cc(CNCCNC(=O)c2nonc2N)ccc1OCc1ccc(Cl)nc1
  A: 2; B: 2271; C: -17; D: 4.0; E: 12; F: 3; G: -5

Full records from above:
CN(Cc1ccccc1)C(=O)c1ccc(NC(=O)Cc2ccc([N+](=O)[O-])cc2)cc1 across the screens: ugtP null kill: 3; Autofluor counter: 3272; PrP 5UTR inh: -12; Sa RN4220 lethal: -0.1; Mtb hypoxia inh: 4; Mtb hypoxia inh growth: 4; BJeLR viability: /
COc1ccccc1OCC(=O)Nc1ccc2c(c1)C(=O)N(CC1CCCO1)C2=O (configuration not stated) across the screens: ugtP null kill: 7; Autofluor counter: 3205; PrP 5UTR inh: -23; Sa RN4220 lethal: -0.5; Mtb hypoxia inh: -7; Mtb hypoxia inh growth: -2; BJeLR viability: -5

(more compounds)
Letter code: A = ugtP null kill; B = Autofluor counter; C = PrP 5UTR inh; D = Sa RN4220 lethal; E = Mtb hypoxia inh; F = Mtb hypoxia inh growth; G = BJeLR viability
Compound: O=C(COc1ccc(F)cc1F)N1CCCCCCC1
  A: 8; B: 3613; C: -59; D: 4.1; E: /; F: /; G: 23
Compound: COc1ccc(Nc2nc(NCc3ccco3)nc(N/N=C/c3ccccc3)n2)cc1
  A: /; B: 2761; C: -16; D: /; E: /; F: /; G: 1
Compound: O=C(NCCc1c[nH]c2ccc(Cl)cc12)c1ccc([N+](=O)[O-])cc1
  A: 6; B: 5440; C: -20; D: 4.3; E: 1; F: 0; G: -2
Compound: COc1ccc(-c2noc(Cc3cccs3)n2)cc1
  A: 9; B: 3271; C: -85; D: 9.6; E: 2; F: 3; G: 11
Compound: COC(=O)c1sccc1NC(=O)c1ccc(Br)o1
  A: -20; B: 2867; C: -19; D: 12; E: 10; F: 8; G: -3
Compound: Cc1ccc(CN(Cc2ccco2)C(=S)Nc2ccccc2C)cc1
  A: 4; B: 3359; C: -48; D: 7.2; E: 1; F: -4; G: -2
Compound: Cn1c(=O)oc2cc(S(=O)(=O)NCCC(=O)NCCc3ccc(Cl)cc3)ccc21
  A: -14; B: 19293*; C: -62; D: -5.1; E: -2; F: -2; G: 7
Compound: CCNC(=O)NC(=O)COC(=O)c1cccc(NS(=O)(=O)/C=C/c2ccccc2)c1
  A: 3; B: 2129; C: -37; D: -2.1; E: 5; F: 4; G: -3
Compound: O=c1[nH]c(CN2CCOCC2)nc2scc(-c3ccccc3)c12
  A: 3; B: 4343; C: -17; D: 4.2; E: 5; F: 4; G: 16
Compound: CN(CC(=O)Nc1ccccc1C(F)(F)F)C(=O)c1cc(-c2cccs2)nn1-c1ccccc1
  A: 1; B: ?; C: -13; D: 3.4; E: 5; F: -4; G: 1
Compound: COc1ccc(N2CC(C(=O)OCC(=O)Nc3cc(C)on3)CC2=O)cc1 (configuration not stated)
  A: 9; B: 5728; C: -26; D: 3.7; E: 6; F: 8; G: -5
Compound: O=C(c1ccccc1)c1nn(-c2ccc(Cl)cc2)cc1C(=O)c1cc2ccccc2oc1=O
  A: /; B: ?; C: -12; D: /; E: /; F: /; G: 5
Compound: COc1ccccc1OCCSc1nc2ccccc2c(=O)[nH]1
  A: 1; B: 6429; C: -31; D: 7.1; E: 9; F: 19; G: 1
Compound: COc1ccc(/C=C2\SC(=S)N(CCC(=O)Nc3ccc(C(=O)O)cc3)C2=O)cc1OC
  A: 13; B: 3002; C: -13; D: 9.9; E: 5; F: -3; G: -5
Compound: CCc1ccccc1NC(=O)c1noc(C(C)C)c1[N+](=O)[O-]
  A: 10; B: 2160; C: -3; D: 6.9; E: 19; F: 15; G: 4
Compound: CCN(CC)C(=O)CN(c1ccc(C)cc1)S(=O)(=O)c1ccc(SC)cc1
  A: -3; B: 3632; C: -23; D: 3.2; E: 13; F: 12; G: 4
Compound: CC(=O)c1ccc(OCC(=O)NC2CCCN(Cc3ccccc3F)C2)cc1 (configuration not stated)
  A: 0; B: 4295; C: -12; D: 0.6; E: 8; F: 3; G: 2

Compounds as they come, and some 4% of all compounds hit somewhere here.
